# Arbovirus inh: blocks arbovirus infection; hit rate 0.37% among 200,000; arbovirus infection cell-based antiviral screen; inhibition, % at 10 µM;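 active = inhibition from about 30%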;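 also: bluetongue infection of BSR cells; cell survival read as ATP light after 72 h; 0% = infected wells without compound and 100% = uninfected wells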
# YopH inh: YopH (Yersinia) phosphatase inhibition; hit rate 0.16% among 140,000; fluorescence Ex485/Em525; inhibition, %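 (about 10 µM by stock and volumes)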;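 active = inhibition of 50% or more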;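 also: controls were vehicle for no effect and minimum signal wells for full effect; inactives centre near -20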
# RecA splice inh: Mtb RecA intein splicing inhibition | P9WHJ3 | cell-free RecA intein splicing, fluorescence | inhibition, %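 (about 9 µM by stock and volumes)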 | hit rate 0.75% among 290,000 | AID 2221; in the data active = inhibition above about 30%; inconclusive = no clear call, values can overlap the other calls;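 also: 0% = vehicle wells and 100% = reference inhibitor control wells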
# Target sequence (P9WHJ3 whole entry, looked up, canonical isoform): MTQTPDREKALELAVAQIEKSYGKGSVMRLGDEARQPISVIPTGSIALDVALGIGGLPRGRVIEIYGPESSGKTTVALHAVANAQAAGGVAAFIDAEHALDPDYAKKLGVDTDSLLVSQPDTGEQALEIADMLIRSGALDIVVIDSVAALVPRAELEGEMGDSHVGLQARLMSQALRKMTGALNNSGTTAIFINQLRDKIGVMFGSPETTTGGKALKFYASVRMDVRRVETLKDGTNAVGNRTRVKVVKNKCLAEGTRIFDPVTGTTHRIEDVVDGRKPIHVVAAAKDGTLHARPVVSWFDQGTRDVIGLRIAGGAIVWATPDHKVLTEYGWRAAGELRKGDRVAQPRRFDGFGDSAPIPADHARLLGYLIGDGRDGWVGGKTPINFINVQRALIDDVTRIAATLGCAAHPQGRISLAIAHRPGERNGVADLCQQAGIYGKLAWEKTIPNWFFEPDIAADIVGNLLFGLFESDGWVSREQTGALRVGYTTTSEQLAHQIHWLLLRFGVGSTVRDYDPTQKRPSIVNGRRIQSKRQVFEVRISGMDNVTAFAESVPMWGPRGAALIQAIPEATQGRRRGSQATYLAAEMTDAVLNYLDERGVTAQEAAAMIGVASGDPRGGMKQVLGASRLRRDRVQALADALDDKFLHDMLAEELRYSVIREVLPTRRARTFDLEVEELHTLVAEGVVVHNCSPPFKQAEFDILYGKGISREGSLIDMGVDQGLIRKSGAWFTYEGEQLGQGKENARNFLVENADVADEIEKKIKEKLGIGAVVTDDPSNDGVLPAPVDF
# Mtb H37Rv: M. tuberculosis H37Rv growth inhibitors, H37Rv strain (AID 1626); M. tuberculosis H37Rv growth inhibition; higher % means a stronger effect; inhibition, % at 10 µM, or IC50 in µM where a hit was titrated; hit rate 0.95% among 220,000;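 active = confirmed in a dose series; inconclusive = inhibition above 80% but not taken into the dose series; inactive = below 80% or under 30% at every dose of the series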;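 also: bacteria incubated seven days before Alamar blue readout; 0% = bacteria only wells and 100% = bacteria with antibiotic wells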
# Mtb betalactam: beta-lactam sensitization of Mtb H37Rv; M. tuberculosis H37Rv growth with meropenem, percent inhibition; hits of this screen are not shown here; inhibition, % at 25 µM; hit rate 0.27% among 330,000;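 active = about 74% or more and at least 40 points above the plate without the antibiotic, then above 30% in a dose series; inconclusive = first-round hits that could not be retested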;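 also: growth measured after seven days incubation then overnight dye step; 0% = bacteria only wells and 100% = bacteria with antibiotic; twin plates without the antibiotic show which effects depend on it; some results filed as inactive read as strong as hits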
# Arbovirus inh repeat: also measured in Arbovirus inh; calls as there; inhibition, %; measured here: 10K subset replicate screen; many hits read low in the repeat;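 first of two repeat runs on a subset; 0% = infected and 100% = uninfected wells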
# * hit, by the source's call; ? = inconclusive; · = no result given. Not all compounds are listed, so the mix of outcomes need not match the whole.
SMILES,Arbovirus inh,YopH inh,RecA splice inh,Mtb H37Rv,Mtb betalactam,others
CCOC(=O)c1ccc(NC(=O)Nc2ccn(C)n2)cc1,-8,28,4.8,6%,-16,
COC(=O)c1c(C)oc(C)c1S(=O)(=O)NCc1ccc(OC)cc1,·,·,1.3,-2%,-4,
CCOc1ccc(NC(=S)N(CCCN2CCCC2)Cc2cccn2Cc2ccc(Cl)cc2)cc1,-34,·,4.8,43%,88,
Cc1ccc(S(=O)(=O)N2CCC(C(=O)NC3CC(C)(C)NC(C)(C)C3)CC2)cc1,·,·,-4.1,·,-23,
Fc1ccc2[nH]c3c(Cl)ncnc3c2c1,-2,·,1.7,1%,-3,
Cn1c(COc2ccc(Cl)cc2)nnc1SCC(=O)NC1CCCC1,·,·,1.0,·,0,
Cc1cc(-c2ccccc2)nc(N2CCC(C(=O)NC34CC5CC(CC(C5)C3)C4)CC2)n1,1,-24,0.3,6%,-5,
CCCc1nnc(SCC(=O)O)n1/N=C/c1ccc2c(c1)OCO2,1,-43,5.7,-9%,-3,Arbovirus inh repeat=2
CN(c1ccccc1)S(=O)(=O)c1cccc(NC(=O)CSc2ncn[nH]2)c1,6,-33,2.1,-2%,-8,
O=C(Nc1ccc(N2CCOCC2)c(S(=O)(=O)Nc2cc(Cl)ccc2Cl)c1)c1cccnc1,·,·,5.9,-5%,-9,
COc1ccc2c(c1)-c1nc(/N=C/c3ccc(O)cc3)sc1CC2,10,-4,·,11%,-2,
Cc1cc(SCC(=O)Nc2ccccc2)nc(C)n1,8,0,-2.4,0%,-12,
CCC(=O)N(CC)Cc1cc(=O)[nH]c2ccccc12,6,-9,1.7,10%,3,
CCN1CCN(C(c2ccc(OC)cc2)c2nnnn2Cc2ccc3c(c2)OCO3)CC1 (stereo unspecified),-5,·,-1.6,9%,2,
Cc1cccc(N(C(=O)CCC(=O)Nc2cccnc2)C(C(=O)NC2CCCC2)c2ccncc2)c1 (stereo unspecified),-1,-4,0.0,4%,-2,
CCN(CCn1cccn1)C(=O)CCc1nnc(C2CCCCC2)o1,·,·,-0.4,-5%,-1,
COc1ccc(/C(O)=C2/C(=O)C(=O)N(CCCN3CCOCC3)C2c2ccc(C(C)C)cc2)cc1 (stereo unspecified),·,·,0.8,·,-8,
CCOc1ccc(NC(=O)CN2C(=O)CSC(C)C2=O)cc1 (stereo unspecified),13,·,6.3,-3%,5,
Cc1ccccc1Cn1cnc2ccccc2c1=O,6,-10,2.1,8%,-1,
CC(Sc1nc2ccccc2[nH]1)C(=O)Nc1ccc2c(c1)OCCO2 (stereo unspecified),-2,-32,-1.1,-2%,-6,
Cc1ccc(C(C)C)c(OC/C(O)=C(\C#N)c2nc3ccccc3[nH]2)c1,·,·,-2.4,9%,-6,
COCCCN1C(=O)c2ccc(C(=O)OCC(=O)N(C)c3ccccc3)cc2C1=O,17,·,0.7,3%,2,
Cc1nc2c3ccccc3n(CC(=O)c3ccc(F)cc3)c(=O)n2n1,2,·,1.6,-1%,?,Arbovirus inh repeat=-6
O=C(O)C1OC(C(=O)O)C2C1C(F)(F)C2(F)F (stereo unspecified),-2,-14,-0.1,-11%,2,
CN(C)S(=O)(=O)N(CC(=O)N1CCN(Cc2ccccc2)CC1)c1ccccc1,·,·,-2.9,-1%,-8,
Cc1ccc(S(=O)(=O)c2c(N)n(CCC(C)C)c3nc4ccccc4nc23)cc1,-14,9,85*,0%,0,
CCN(C(=O)Cn1cc(C(C)=O)c2ccccc21)c1ccccc1,0,·,4.6,-2%,-4,
C/C(=N\NC(=O)c1ccc(NS(=O)(=O)c2cccs2)cc1)c1ccccn1,·,·,0.0,13%,93,
CCOC(=O)C1CCN(c2c(NCc3ccc(N(C)C)cc3)c(=O)c2=O)CC1,·,·,-3.5,-18%,-3,
Cc1cc(-c2ccccc2)nc(SCC(=O)c2cccc([N+](=O)[O-])c2)n1,-24,-57,·,-4%,-1,
O=c1/c(=C/c2ccco2)sc2n1CN(c1ccccc1)CN=2,4,-22,0.9,0%,11,
COc1ccc(/C=N/NC(=O)c2cccnc2)c2ccccc12,·,·,-0.4,·,27,
CCN(CC)C(=O)c1sc(NC(=O)c2ccc3c(c2)OCO3)c(C#N)c1C,-4,-5,1.2,-10%,-2,
CCn1c(SCC(=O)NCc2ccccc2)nc2c(c1=O)SC(C)C2 (stereo unspecified),4,-41,0.3,12%,1,
COc1ccc(C(=O)N2CCOCC2)cc1S(=O)(=O)N1CCCc2ccccc21,-2,·,2.3,-4%,2,
CCN1CCC(N(C)C2CCCCC2)CC1,·,·,1.5,·,-11,
CN(C)S(=O)(=O)N1CCC(Oc2cccc(C(=O)N3CCCCCCC3)c2)CC1,·,·,2.6,·,-2,
CCN1C(c2ccccc2)=C(c2ccccc2)S/C1=C\C=C1/SC(=S)N(C)C1=O,·,-4,3.3,3%,16,
CN(C)S(=O)(=O)N1CCC(CCCC2CCN(S(=O)(=O)N(C)C)CC2)CC1,-8,-2,1.5,-4%,0,
CCOC(=O)CSc1nc2ccccc2c(=O)n1CC,2,-6,-3.2,-6%,-1,
O=C(NCCc1nc2ccccc2[nH]1)Nc1ccccc1,9,-43,3.3,-4%,-6,
CCOc1ccc(CCNC(=O)Cn2cccc2C(=O)c2ccccc2)cc1OCC,1,-27,-1.2,-10%,0,
Cc1ccc(S(=O)(=O)N2CCC(=O)N(C(CO)Cc3ccccc3)CC2)cc1 (stereo unspecified),2,-32,1.1,-6%,-1,
COc1ccc(C(=O)c2coc3ccc(OC(C)=O)cc23)cc1,·,·,-0.2,·,7,
CC1CCCCC1NC(=O)c1ccc(N2CCCC2=O)cc1 (stereo unspecified),10,5,1.5,1%,71,
COc1ccc(OC)c(S(=O)(=O)N2CCNCC2)c1,·,·,-3.1,9%,0,
O=C(/C=C/c1ccccc1[N+](=O)[O-])NCc1ccncc1,4,·,0.2,0%,4,
CN(C)S(=O)(=O)c1cccc(NC(=O)COC(=O)C2(c3ccccc3F)CCCC2)c1,17,-10,3.0,5%,4,
CC1CCN(CC(=O)Nc2ccc(S(=O)(=O)NC3CC3)cc2)CC1,·,·,0.1,·,-2,
COc1ccc(CC(=O)NC2CCCCCC2)c(OC)c1,·,·,-0.6,·,-1,
# More compounds:
SMILES,Arbovirus inh,YopH inh,RecA splice inh,Mtb H37Rv,Mtb betalactam,others
COC(=O)C(C)Sc1nc2c(cnn2-c2ccc(F)cc2)c(=O)[nH]1 (stereo unspecified),·,·,5.2,·,8,
O=C(O)c1ccnc(SCC(=O)c2ccccc2)c1,-2,-29,3.6,-5%,1,
O=C(COC(=O)CNS(=O)(=O)c1ccc2ccccc2c1)Nc1ccc2c(c1)OCO2,3,-9,-2.0,-1%,3,
O=C(Nc1ccc(NC(=O)c2cccc([N+](=O)[O-])c2)cc1)c1cccc([N+](=O)[O-])c1,·,·,0.3,·,5,
Cc1ccc(S(=O)(=O)NCC(=O)OCC(=O)N2CCN(C(=O)c3ccco3)CC2)cc1C,·,·,-0.4,·,-6,
COc1ccc(/C=C2/C(=O)OCc3cc(OC)c(OC)cc32)c(OC)c1,-11,-16,-0.7,-9%,1,
O=C(O)c1cccc(N=NN2CCCCCC2)c1,3,-34,-1.2,-12%,-1,
COc1cc(C(=S)N2CCOCC2)ccc1OS(=O)(=O)c1ccc(NC(C)=O)cc1,8,-27,-0.8,2%,-2,
O=C(NCCCN1CCOCC1)c1ccc(S(=O)(=O)Nc2ccccc2F)cc1,·,·,-1.0,·,-12,
C/C(N)=C(/C#N)C(=O)CSc1ncnc2ccccc12,1,-33,8.3,-1%,-10,
COC(=O)c1cc(NC(=O)CC2C(=O)NCCN2C(=O)c2ccc(F)cc2)cc(C(=O)OC)c1 (stereo unspecified),-1,12,-0.6,8%,1,
Cc1cccc(-c2noc(CCCC(=O)Nc3cccnc3)n2)c1,7,-43,3.8,·,6,
C=C(C)CSC1=C(C#N)C(c2ccccc2)CC(=O)N1 (stereo unspecified),-4,-52,0.2,-21%,-3,Arbovirus inh repeat=2
CC(NC(=S)Nc1ccccc1)C1COc2ccccc2O1 (stereo unspecified),6,-26,1.8,5%,1,
S=C(NCc1ccc(Cl)cc1Cl)NC1CCCCC1,-33,-19,14,2%,-2,
O=C(O)c1ccc(O)c(O)c1,·,·,·,0%,-3,
COc1ccccc1N1CCN(C(=O)C2CCCN(c3ncnc4c3nc3n4CCCCC3)C2)CC1 (stereo unspecified),·,·,-1.8,·,1,
C/C(=N\NC(=O)COc1ccc(C(C)(C)C)cc1)c1ccc(N2CCOCC2)cc1,1,-12,-2.7,0%,65,
COC(=O)c1cccc(Oc2cccc(C(F)(F)F)c2)n1,8,·,0.2,1%,-2,
COc1cccc(CN2CCN(Cc3ccon3)CC2CCO)c1 (stereo unspecified),2,·,0.3,2%,4,
COc1cc(C(=O)N[C@@H](C)C(=O)NCc2ccco2)cc(OC)c1OC,3,·,1.2,-2%,0,
O=C(Nc1cccc(S(=O)(=O)Nc2ccccc2Cl)c1)c1ccc(N2CCCC2)c([N+](=O)[O-])c1,1,3,3.0,8%,4,
Cn1c(SCC(=O)Nc2ccc3cn[nH]c3c2)nnc1-c1cnccn1,0,-10,6.9,0%,5,
O=C(C1CCCCN1S(=O)(=O)c1ccccc1)N1CCN(C(c2ccccc2)c2ccccc2)CC1 (stereo unspecified),-13,-29,12,11%,-7,
CC(Oc1ccc2c(-c3ccccc3)cc(=O)oc2c1)C(=O)N1CCC[C@@H]1C(N)=O (stereo partly specified),·,·,3.3,·,-7,
COc1cccc(C(=O)CC(=O)C(=O)Nc2cc(OC)c(OC)c(OC)c2)c1,·,·,1.6,·,2,
CCOC(=O)CSc1nc2ccccc2n1CC(=O)N1CCN(c2ccccc2)CC1,-3,-5,·,0%,21,
Cc1csc(=O)n1CC(=O)OCC(=O)Nc1ccc(F)c(F)c1,·,·,-0.4,·,-6,
CCOc1ccc(CCNC(=O)CCOc2cc(C)ccc2C)cc1OCC,·,·,-2.2,·,6,
COc1cccc(NC(=O)C(C)OC(=O)CCCNC(=O)c2ccc(Cl)cc2)c1 (stereo unspecified),·,·,-1.9,·,-13,

# Reprinted from the part before: 2 compounds, followed by the next part.
SMILES,Arbovirus inh,YopH inh,RecA splice inh,Mtb H37Rv,Mtb betalactam,others
CCOc1ccc(CCNC(=O)CCOc2cc(C)ccc2C)cc1OCC,·,·,-2.2,·,6,
COc1cccc(NC(=O)C(C)OC(=O)CCCNC(=O)c2ccc(Cl)cc2)c1 (stereo unspecified),·,·,-1.9,·,-13,
O=C(NCCCN1CCOCC1)c1ccc(CS(=O)(=O)Cc2ccccc2Cl)o1,-2,-46,-2.1,-1%,-16,
Cc1ccc2cccc(Oc3ncnc4sc(C)c(C)c34)c2n1,8,-39,1.6,37%,67,
O=S(=O)(Nc1ccc(Cc2ccncc2)cc1)c1ccc(Br)s1,4,-30,7.2,5%,-7,
COc1ccc(CNC(=O)C(=O)NCc2cccnc2)cc1,1,·,-1.4,-5%,3,
C/C(=N\NC(=O)c1ccc(N(C)C)cc1)c1ccc(C)c(C)c1,1,15,-2.3,2%,6,
C[C@H](NC(=O)C1CCN(S(=O)(=O)c2ccccc2)CC1)C(=O)NCc1ccc(F)cc1,·,·,1.5,·,4,
NC(=O)CC(NC(=O)Cc1ccc(Br)cc1)c1ccc(N2CCN(c3ccccn3)CC2)c([N+](=O)[O-])c1 (stereo unspecified),·,·,-0.9,·,-17,
CN(Cc1nccs1)C(=O)C1CCC(=O)N(CCc2ccc(Cl)cc2)C1 (stereo unspecified),·,·,2.6,·,8,
O=C(CCn1c(=O)oc2ccccc21)NCCN1CCc2ccccc2C1,12,-17,1.9,-7%,-20,
Cc1ccc(NC(=O)CCNC(=O)c2ccccc2)cc1F,·,·,2.0,·,14,
COc1cc(OC)cc(-c2nnc(SCC(=O)N(Cc3ccccc3)C(C)(C)C)o2)c1,-7,-35,6.7,24%,2,
CCOC(=O)c1c(C)[nH]c(C)c1S(=O)(=O)NCc1ccccc1OCC,·,·,1.3,·,1,
c1ccc(-c2cn(C[C@H]3CC[C@@H]([C@@H]4CC[C@H](Cn5cc(-c6ccccc6)nn5)O4)O3)nn2)cc1,·,·,0.6,·,3,

# Retrieved by structure from the list above (5):
SMILES,Arbovirus inh,YopH inh,RecA splice inh,Mtb H37Rv,Mtb betalactam,others
CN(C)S(=O)(=O)N(CC(=O)N1CCN(Cc2ccccc2)CC1)c1ccccc1,·,·,-2.9,-1%,-8,
CC1CCN(CC(=O)Nc2ccc(S(=O)(=O)NC3CC3)cc2)CC1,·,·,0.1,·,-2,
Cn1c(SCC(=O)Nc2ccc3cn[nH]c3c2)nnc1-c1cnccn1,0,-10,6.9,0%,5,
CCOC(=O)CSc1nc2ccccc2c(=O)n1CC,2,-6,-3.2,-6%,-1,
CN(C)S(=O)(=O)N1CCC(Oc2cccc(C(=O)N3CCCCCCC3)c2)CC1,·,·,2.6,·,-2,

# Assay outcomes from PubChem BioAssay.
